Sa growth inh – blocks Staphylococcus aureus growth | S. aureus RN4220 growth, OD600, 20 h, 42 °C; stronger effect = lower value | relative growth, % (no concentration beside the values) | 0.53% of 170,000 active;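 active means growth at 42 °C up to 50% and 20 or more points under that at 30 °C, or under 10% at both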;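 further: 300 nL library stock went into each well; scaled to the means of positive and negative controls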
HCMV NEC inh – cytomegalovirus nuclear egress complex inhibition | HTRF UL50-UL53 interaction, normalized percent inhibition | 0.15% of 190,000 active | AID 1918969 | inhibition, % (test concentration not listed);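 active means both replicates at 50% or more, plus weaker picks with an unusually low signal ratio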;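 further: stock transfer was 100 nL into about 20 µL; 0% = negative control wells and 100% = wells with untagged competitor protein; inactives centre near -12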
GIV Gai3 FP – GIV-Galpha-i interaction inhibition. 0.42% of 210,000 active. Galpha-i3/FITC-GIV peptide fluorescence polarization, 90 min; stronger effect = lower value; scaled: aluminum fluoride 0%, vehicle 100%. P08753. percent of control (FP), % (test concentration not listed). AID 1224905;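 active means replicate mean at 85% of control or lower, very high polarization wells dropped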;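 further: wells of about 15 µL received 100 nL stock; the first replicate is given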
Target sequence (P08753 whole entry, looked up): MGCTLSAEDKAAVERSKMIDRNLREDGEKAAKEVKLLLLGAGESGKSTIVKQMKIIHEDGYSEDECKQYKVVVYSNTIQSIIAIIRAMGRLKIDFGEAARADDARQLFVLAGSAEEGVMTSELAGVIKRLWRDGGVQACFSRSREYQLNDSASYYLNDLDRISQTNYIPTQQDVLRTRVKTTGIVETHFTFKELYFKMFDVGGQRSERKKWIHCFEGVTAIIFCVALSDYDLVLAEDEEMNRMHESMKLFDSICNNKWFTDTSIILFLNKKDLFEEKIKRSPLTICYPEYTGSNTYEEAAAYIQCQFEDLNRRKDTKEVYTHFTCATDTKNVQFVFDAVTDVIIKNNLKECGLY
Sa growth inh second temp – second read-out of Sa growth inh, no call of its own (marks repeat the call); relative growth, %; measured here: growth at 30 °C;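 optical density after 20 h as mean of two plates; 100% = untreated growth and lower means inhibition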
* marks the source's active call; other numbers are inactive results; . = not tested or not shown; & = joins results of further samples.

SMILES	Sa growth inh	Sa growth inh second temp	HCMV NEC inh	GIV Gai3 FP
COCCNC(=O)CN1CCC(NC(=O)c2ccco2)CC1	98	86	-10	107
N#Cc1ccc(N2CCOCC2)cc1	96	88	-8	105
O=C(Cc1nc2ccccc2[nH]1)N1CCOCC1	68	91	-1	.
COc1ccc(-c2nsc(SCC(=O)N3CCCCC3)n2)cc1	87	69	-39	104
O=C(NCCCN1CCCC1=O)c1cc(-c2ccc(F)cc2)nc2ccccc12	90	102	10	.
CC1Cc2ccccc2O1 (stereo not drawn)	80	94	-12	.
O=c1[nH]c2nc3ccccc3n2c(O)c1Cc1ccccc1	84	85	-16	101
COc1ccc(C2C(C(=O)Nc3ccc(Br)cn3)=C(C)NC3=C2C(=O)CC(C)(C)C3)c(OC)c1 (stereo not drawn)	.	.	-21	102
CCCn1c(CCC(=O)Nc2cccc(CC)c2)nc2cccnc21	110	81	-35	109
O=C(CN1C(=O)c2ccccc2S1(=O)=O)NCc1ccccc1Cl	131	84	-43	.
c1ccc2c(N3CCC4(CC3)OCCO4)nnc(Cc3ccncc3)c2c1	95	94	.	104
Cc1ccccc1NC(=O)c1nnc(CSCC(=O)N2CCN(c3ccccn3)CC2)s1	.	.	7	104
COc1ccc(-c2csc(-c3nc(-c4ccc(Br)s4)cs3)n2)cc1F	99	91	8	100
Cc1occc1-c1nnc2sc(COc3ccc(Br)cc3)nn12	.	.	-13	106
COc1ccc(/C=N/NC(=O)Cn2ccnc2C)cc1	91	88	-56	103
O=C(CN1C(=O)c2ccccc2C1=O)NCc1ccccc1	96	92	-30	105
CCn1c(SCC(=O)NC(C)c2ccccc2)nnc1-c1ccccc1OC (stereo not drawn)	84	92	-19	.
COc1ccc(OCC(=O)NCc2ccncc2)cc1	105	83	5	105
O=c1[nH]c2cc3[nH]c(=O)c(=O)c3cc2c1=O	106	85	-126	96
O=C(c1sc(=S)n2c1[nH]c(=O)c1cc3c(cc12)OCO3)N1CCCC1	.	.	14	99
CCOC(=O)Cn1c(=O)oc2cc(S(=O)(=O)N3CCC(C)CC3)ccc21	89	78	-24	102
N#Cc1ccccc1NC(=O)COC(=O)c1ccccc1C(=O)N1CCCC1	101	97	-3	.
O=C(CN1CCn2nc(-c3ccccc3)cc2C1=O)NCCc1ccc(Cl)cc1	.	.	-16	102
COc1ccc(N2CC(NC(=O)c3ccc(OC(C)C)cc3)CC2=O)cc1 (stereo not drawn)	113	94	.	97
NC(=O)CS(=O)(=O)c1nc2ccccc2n1Cc1ccccc1	103	79	.	99

Remaining list, next part.
SMILES	Sa growth inh	Sa growth inh second temp	HCMV NEC inh	GIV Gai3 FP
O=C(CSc1nc2ccccc2c(=O)[nH]1)NC1CCCC1	87	97	-3	98
CCC(C)NC(=O)Cn1c(=O)n(-c2ccc(Cl)cc2)c(=O)c2c3c(sc21)CCCC3 (stereo not drawn)	110	95	-21	107
COc1ccc(C(=O)/C=C/c2cn(CC(O)CN(CC(C)C)CC(C)C)c3ccccc23)cc1 (stereo not drawn)	108	95	-7	133
O=C(Nc1c(NC2CCCCC2)c2ccccc2oc1=O)c1ccco1	93	103	-6	111
CCC(=O)OCC(=O)C1(OC(=O)CC)C(C)CC2C3CCC4=CC(=O)C=CC4(C)C3(Cl)C(O)CC21C (stereo not drawn)	97	93	-3	.
CC(C)n1cc(C(=O)c2ccccc2O)cc1-c1nnc(-c2ccccc2)o1	101	105	-5	.
COc1cccc(NC(=O)COC(=O)Cc2ccc(F)cc2)c1	87	95	23	.
O=C(O)c1ccc2c(c1)N(Cc1ccc(Cl)cc1)CCS2	141	87	.	103
Cc1ccccc1CN1C(=O)/C(=C\c2ccc(C(=O)NCc3ccco3)cc2)Sc2ccccc21	95	94	.	106
O=C1NC(c2ccccc2Cl)Nc2sc3c(c21)CCCC3 (stereo not drawn)	99	84	.	101
Cc1nn(-c2ccccc2)c(C)c1CCc1nn2c(C(C)(C)C)nnc2s1	.	.	4	107
O=C1c2ccccc2-c2onc3c(Cl)ccc1c23	89	76	-13	127
O=C(NN1CCCCC1)c1oc2ccccc2c1COc1ccccc1	66	81	-16	.
O=C(c1cccs1)C1C(=O)c2ccccc2C1=O	118	98	-10	.
O=C(c1ccc(-c2ccccc2)cc1)N1CCOCC1	104	90	-5	106
COc1ccc(N=C2NC(=O)C(CC(=O)Nc3ccc(OC)cc3)S2)cc1 (stereo not drawn)	100	84	.	97
Nc1c(S(=O)(=O)c2ccccc2)sc2nc(-c3cccs3)cc(C(F)(F)F)c12	108	84	-16	.
Cc1ccc(CNC(=O)CCn2c(=O)c3cccn3c3cccnc32)cc1	108	90	-30	103
CCCN1CC2=C(NC(=S)NC2c2ccc(N(C)C)cc2)/C(=C/c2ccc(N(C)C)cc2)C1 (stereo not drawn)	103	81	-33	197
CCOC(=O)Cc1nnc(SCc2cc(=O)n3c4c(sc3n2)CCCC4)n1Cc1ccco1	108	82	-13	.
O=C1C2C3C=CC(C3)C2C(=O)N1CN1CCCCC1 (stereo not drawn)	90	89	.	103
Cc1ccc(CNS(=O)(=O)c2cc3[nH]c(=O)c(=O)[nH]c3cc2C)cc1	103	92	.	108
O=S(=O)(Cc1ccc(Cl)cc1)C1CCCCC1O (stereo not drawn)	87	83	-23	101
CN(Cc1nc(-c2ccccc2)no1)C(=O)NC1CCCCC1	91	101	-19	99
Cc1ccc(-c2cc3c(SC(C)C)nccn3n2)cc1C	.	.	-12	105

Among those listed so far, these contain a Cl atom.
SMILES	Sa growth inh	Sa growth inh second temp	HCMV NEC inh	GIV Gai3 FP
O=C(CN1C(=O)c2ccccc2S1(=O)=O)NCc1ccccc1Cl	131	84	-43	.
O=C(CN1CCn2nc(-c3ccccc3)cc2C1=O)NCCc1ccc(Cl)cc1	.	.	-16	102
CCC(C)NC(=O)Cn1c(=O)n(-c2ccc(Cl)cc2)c(=O)c2c3c(sc21)CCCC3 (stereo not drawn)	110	95	-21	107
CCC(=O)OCC(=O)C1(OC(=O)CC)C(C)CC2C3CCC4=CC(=O)C=CC4(C)C3(Cl)C(O)CC21C (stereo not drawn)	97	93	-3	.
O=C(O)c1ccc2c(c1)N(Cc1ccc(Cl)cc1)CCS2	141	87	.	103
O=C1NC(c2ccccc2Cl)Nc2sc3c(c21)CCCC3 (stereo not drawn)	99	84	.	101
O=C1c2ccccc2-c2onc3c(Cl)ccc1c23	89	76	-13	127
O=S(=O)(Cc1ccc(Cl)cc1)C1CCCCC1O (stereo not drawn)	87	83	-23	101

Next part.
SMILES	Sa growth inh	Sa growth inh second temp	HCMV NEC inh	GIV Gai3 FP
O=C(N=Nc1c(O)[nH]c2ccccc12)C(O)c1ccccc1 (stereo not drawn)	94	67	-148	108
Cc1ccc(-c2ccc(=O)[nH]n2)cc1	118	85	-44	107
O=C(CSc1nc(-c2ccccc2)cc(=O)[nH]1)Nc1ccccc1	111&115	94&103	-7&-36	92&103
CC1(C)CC(=O)C(C=NCC(N)=O)=C(O)C1	104	112	-12	102
COC(=O)CN1C(=O)CSc2ccc(S(=O)(=O)Nc3ccc(C)c(Cl)c3)cc21	115	90	.	106
O=C(c1cccc(C(F)(F)F)c1)N1CCc2c([nH]c3ccccc23)C1C(F)(F)F (stereo not drawn)	100	92	-43	106
CCOC(=O)c1cnc2c(OC)cccc2c1N1CCC2(CC1)OCCO2	113	82	.	100
CCC(O)C12CC3CC(CC(C3)C1)C2 (stereo not drawn)	100	87	-7	.
Cc1ccc(C(CC(=O)c2ccco2)SCc2ccco2)cc1 (stereo not drawn)	114	86	-18	.
Cc1cccc(-n2c(C)cc(C(=O)C(=O)Nc3nncs3)c2C)c1	96	81	-21	120
Cc1cc(C)c2c(CC(=O)Nc3c(C(=O)Nc4ccc(Cl)cc4)oc4ccccc34)coc2c1	108	85	-11	106
O=C(OCC(=O)N1CCOCC1)c1ccc(S(=O)(=O)NCc2ccco2)cc1	106	97	-1	.
Cc1ccc(S(=O)(=O)c2ccc(C(=O)O)cn2)cc1C	.	.	-21	97
CCN1C(=O)/C(=N\N=C2\C(=O)N(CC)c3ccccc32)c2ccccc21	81	88	-23	.
COc1ccc(C(=O)Nc2cccnc2Sc2ccc(Cl)cc2)cc1	119	101	-8	104
Cc1cc(C)cc(OCCn2c(CCNC(=O)C3CCCCC3)nc3ccccc32)c1	88	89	-6	100
O=C(NCCO)c1cc2c(s1)CCC2	113	91	-24	.
O=C1/C(=C\c2ccccc2O)SC(=Nc2ccccc2)N1Cc1ccccc1	92	93	-4	.
COc1cc(OC)cc(-n2c(=O)c3ccccc3n(CC(=O)NCCc3ccc(OC)c(OC)c3)c2=O)c1	113	94	-28	104
N#Cc1c(-c2ccc(Cl)cc2)[nH]c(SCc2ccccc2)nc1=S	81	70	-43	103
COc1ccc(CCn2cc3c(c2-c2ccccc2Br)c(=O)n(C)c(=O)n3C)cc1OC	106	87	-33	105
CCN1CCN(Cc2c(O)ccc3c(C)c(-c4ccccc4)c(=O)oc23)CC1	82	89	.	108
COc1cc(NC(=O)CCc2c(C)nc3cc(-c4ccccc4)nn3c2C)cc(OC)c1OC	115	85	-22	102
CCOC(=O)c1ccc(CNC(=O)CSc2nnnn2-c2ccc(Cl)cc2)o1	81	89	-1	99
O=C(Nc1ccc2c(c1)OCO2)c1cccs1	81	84	6	.

Single entries from the entries so far.
CCOC(=O)c1cnc2c(OC)cccc2c1N1CCC2(CC1)OCCO2 – Sa growth inh second temp: 82
c1ccc2c(N3CCC4(CC3)OCCO4)nnc(Cc3ccncc3)c2c1 – Sa growth inh second temp: 94

Complete entries as entered above. Screens in order: Sa growth inh, Sa growth inh second temp, HCMV NEC inh, GIV Gai3 FP
O=C(OCC(=O)N1CCOCC1)c1ccc(S(=O)(=O)NCc2ccco2)cc1 is entered as 106, 97, -1, .
O=C(NCCCN1CCCC1=O)c1cc(-c2ccc(F)cc2)nc2ccccc12 is entered as 90, 102, 10, .
CCn1c(SCC(=O)NC(C)c2ccccc2)nnc1-c1ccccc1OC (stereo not drawn) is entered as 84, 92, -19, .
N#Cc1c(-c2ccc(Cl)cc2)[nH]c(SCc2ccccc2)nc1=S is entered as 81, 70, -43, 103
COc1ccc(/C=N/NC(=O)Cn2ccnc2C)cc1 is entered as 91, 88, -56, 103

Going on with the list.
SMILES	Sa growth inh	Sa growth inh second temp	HCMV NEC inh	GIV Gai3 FP
Cc1ccc(SC(C)C(=O)N2CCC(C(N)=O)CC2)cc1 (stereo not drawn)	104	83	-15	.
Cc1nc2nc(CNC(=O)OC(C)(C)C)nn2c(C)c1CCC(=O)NCc1ccc(F)cc1	93	83	-19	103
CC(CCc1ccccc1)NC(=O)C1CCCN(c2ccc(-c3ccccc3)nn2)C1 (stereo not drawn)	.	.	-16	100
Cc1cc(C(=O)O)c(C)n1Cc1ccc(S(N)(=O)=O)cc1	90	95	-29	.
Nc1nc2c(c(=O)[nH]1)C(c1ccc(Br)cc1)CC(=O)N2 (stereo not drawn)	.	.	-11	103
O=C(OCC1COc2ccccc2O1)c1cc(F)c(F)c(F)c1F (stereo not drawn)	122	89	-22	.
Cc1ccnc(NC(=O)Cn2ncc3c2-c2cc(C)ccc2OC3)c1	124	97	.	107
COc1ccc(CNC(=O)/C=C/C(=O)O)cc1	88	81	-12	103
O=C1c2ccccc2NC(c2cccc(F)c2)N1Cc1ccccc1 (stereo not drawn)	94	95	.	99
CCc1ccc(NC(=O)CC2C(=O)N(c3ccc(OC)cc3)C(=O)N2Cc2ccc(OC)cc2)cc1 (stereo not drawn)	114	91	.	99
CCCc1cc(=O)n2[nH]c(CNc3ccc(Cl)cc3)nc2n1	.	.	0	106
Cc1cc(C)n2nc(CC(=O)N3CCN(c4ccccc4)CC3)nc2n1	88	100	1	108
COc1cc(NC(=S)N2CCN(CCO)CC2)c(OC)cc1Cl	117	98	-13	102
CCOC(=O)c1ccc(NC(=O)CCc2c(C)nc3c(c(C)nn3C(C)(C)C)c2C)cc1	96	90	-6	99
O=C1C(=O)N(CSc2nnc(-c3ccco3)o2)c2ccccc21	.	.	-24	110
O=C(O)C1CCN(C(=O)CSc2nnc(-c3ccccc3)c(-c3ccccc3)n2)CC1	83	96	-83	.
CCOC(=O)C(OC(=O)c1ccccc1N1C(=O)c2c(C)nc3ccccc3c2C1=O)c1ccccc1 (stereo not drawn)	.	.	-12	101
CCN(CC)c1nc(C#N)nc(OC)n1	92	77	5	.
Cc1ccc(NC(=O)c2nnc(CSCC(=O)N3CCN(c4ccccn4)CC3)s2)cc1	.	.	-20	100
C=C(C)CSc1nc2sc3c(c2c(=O)n1CCCC)CCCC3	94	83	-40	105
Cc1c(S(=O)(=O)N2CCN(c3cc(-c4ccccc4)ncn3)CC2)cnn1C(F)F	.	.	-32	105
CCOC(=O)c1cc2c(=O)n3ccccc3nc2n(Cc2ccco2)c1=NC(=O)c1cccc(C)c1	98	71	-43	104
Cc1cc(C)c(NC(=O)CN2C(=O)c3cccnc3Sc3ccccc32)c(C)c1	98	89	.	107

Screening data from PubChem.
